Source: PubChem BioAssay (ICCB-Longwood Screening Facility, Harvard Medical School)
PV pol inh = poliovirus RdRp elongation inhibitors, primary screen, biochemical, fluorescence polarization, total intensity; 150,000 compounds, 0.66% hits; poliovirus polymerase elongation; stronger effect = lower value; Genome polyprotein (Poliovirus type 1 (strain Mahoney)), P03300; % elongation, % (compound at 16.7 µg/mL); in the data active = % elongation below about 90%; note: some results filed as inactive read as strong as hits
Target sequence (P03300 1749-2209 limits assumed): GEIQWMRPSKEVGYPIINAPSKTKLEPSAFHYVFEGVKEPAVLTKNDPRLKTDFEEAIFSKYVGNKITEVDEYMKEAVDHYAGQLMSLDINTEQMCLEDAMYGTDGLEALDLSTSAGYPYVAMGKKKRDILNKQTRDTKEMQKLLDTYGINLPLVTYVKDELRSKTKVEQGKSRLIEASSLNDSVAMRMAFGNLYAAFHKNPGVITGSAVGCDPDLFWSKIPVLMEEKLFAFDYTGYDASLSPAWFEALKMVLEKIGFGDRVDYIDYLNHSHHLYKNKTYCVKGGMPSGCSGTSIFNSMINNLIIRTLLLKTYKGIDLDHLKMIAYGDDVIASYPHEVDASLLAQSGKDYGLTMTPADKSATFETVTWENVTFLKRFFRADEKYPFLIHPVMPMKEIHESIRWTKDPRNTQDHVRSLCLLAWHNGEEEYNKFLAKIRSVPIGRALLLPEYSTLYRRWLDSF
Mtb MenB inh = M. tuberculosis MenB inhibitors, primary screen, biochemical, absorbance; MenB enzyme assay, absorbance read-out; some hits fall short of the stated cut; inhibition, %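 (about 12 µg/mL by stock and volumes)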; 100,000 compounds, 0.43% hits; AID 540299, 2011;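 active = mean of two replicates above 30%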;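 note: 0% = no compound and 100% = wells with inactive enzyme; the first replicate is given; strong numbers were not always called active; inactives centre near -10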
MbtI inh = MbtI salicylate synthase inhibitors, primary screen, biochemical, fluorescence intensity. P9WFX0. purified MbtI enzyme, fluorescence intensity read-out. inhibition, %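 (about 17 µg/mL by stock and volumes)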. 100,000 compounds, 0.89% hits;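 active = above 50% in both replicates, above 80% if mildly self-fluorescent; inactive = the rest, strongly fluorescent compounds included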;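 note: 0% = mean of negative and 100% = mean of positive controls; one replicate is shown; some compounds called inactive have numbers as strong as hits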
Target sequence (P9WFX0 whole entry, looked up): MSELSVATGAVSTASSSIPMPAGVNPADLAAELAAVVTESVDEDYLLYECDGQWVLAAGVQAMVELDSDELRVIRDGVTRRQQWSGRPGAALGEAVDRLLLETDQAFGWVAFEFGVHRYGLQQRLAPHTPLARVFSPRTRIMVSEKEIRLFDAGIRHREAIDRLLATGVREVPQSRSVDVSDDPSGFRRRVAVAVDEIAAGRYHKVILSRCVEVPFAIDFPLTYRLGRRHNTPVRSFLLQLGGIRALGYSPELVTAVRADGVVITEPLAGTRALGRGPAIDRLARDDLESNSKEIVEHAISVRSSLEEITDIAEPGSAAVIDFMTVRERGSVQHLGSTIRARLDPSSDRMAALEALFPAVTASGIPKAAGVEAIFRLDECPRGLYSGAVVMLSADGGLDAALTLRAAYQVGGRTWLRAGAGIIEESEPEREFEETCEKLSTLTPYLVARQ
PV pol inh intensity = also measured in PV pol inh; calls as there; % elongation; measured here: total intensity read-out; formula for this scale not given here;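 total fluorescence in place of polarization; lower means less elongation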
* hit, by the source's call; . = not tested or not shown; & = joins results of further samples.

| structure | PV pol inh | PV pol inh intensity | Mtb MenB inh | MbtI inh |
| --- | --- | --- | --- | --- |
| CN(Cc1ccccc1)C(=O)CSc1ncn[nH]1 | 105 | 110 | -10 | -3 |
| Cc1oc2c(CN(C)C)c(O)ccc2c(=O)c1-c1ccccc1Cl | 107 | 107 | -10 | 104 |
| Cc1ccc(NC(=O)NC2CC2)cc1C | 100 | 103 | -4 | 2 |
| O=C(O)CCCC(=O)Nc1ccc(Br)cc1 | 102 | 98 | . | -1 |
| CCCNc1c(NS(=O)(=O)c2ccc(NC(=O)CC)cc2)c(=O)oc2ccccc12 | 100 | 101 | 17 | -4 |
| CC(C)n1cc(/C=C(\C#N)S(=O)(=O)c2ccccc2)c2ccccc21 | 100 | 102 | -86 | -5 |
| CCc1ccc(NC(=O)Cc2csc(C)n2)cc1 | 107 | 100 | -18 | -6 |
| CCN1/C(=C/C2=CC(=O)CC(C)(C)C2)Sc2ccccc21 | 69 | 191 | -64 | 28 |
| Nc1oc(-c2ccc(Cl)cc2)cc1C(=O)c1ccc(Cl)cc1 | 102 | 99 | . | 0 |
| Cc1ccc(S(=O)(=O)N2CCN(C(C)CC(=O)O)CC2)cc1 (stereo not drawn) | 94 | 99 | -31 | 9 |
| C=CCNc1nc(C(=O)OCc2c(C)noc2C)cs1 | 104 | 112 | -21 | -11 |
| NNc1cccc(C(F)(F)F)c1 | 104 | 105 | . | -1 |
| Nc1cc(C(=O)O)ccc1NCCCN1CCOCC1 | 103 | 103 | 0 | 91 |
| Cn1cc(/C=N/NC(=O)C(O)c2ccccc2)c2ccccc21 (stereo not drawn) | 100 | 103 | 2 | 21 |
| O=C(CSc1ncc(CO)n1Cc1ccccc1)N1CCc2ccccc21 | 103 | 103 | -2 | -15 |
| O=C(CSc1nc2c(oc3ccccc32)c(=O)n1C1CCCC1)Nc1nccs1 | 98 | 105 | 6 | -4 |
| O=C(NCCCN1CCCC1)c1ccccc1Cl | 101 | 99 | -10 | -11 |
| CN(CC(=O)NN1C(=O)NC2(CCCCC2)C1=O)Cc1ccc(Cl)cc1 | 102 | 99 | -9 | 1 |
| CCOC(=O)c1ccc(NC(=O)CON=c2c(C)nc3ccccc3nc2C)cc1 | 98 | 92 | -16 | -5 |
| CN(C)CCN(C)Cc1ccccc1 | 101 | 102 | -16 | -25 |

A second format for some results above.
The line under a structure holds: PV pol inh	PV pol inh intensity	Mtb MenB inh	MbtI inh
O=C(O)CCCC(=O)Nc1ccc(Br)cc1
→ 102	98	.	-1
CCCNc1c(NS(=O)(=O)c2ccc(NC(=O)CC)cc2)c(=O)oc2ccccc12
→ 100	101	17	-4
CC(C)n1cc(/C=C(\C#N)S(=O)(=O)c2ccccc2)c2ccccc21
→ 100	102	-86	-5
CCc1ccc(NC(=O)Cc2csc(C)n2)cc1
→ 107	100	-18	-6
CCN1/C(=C/C2=CC(=O)CC(C)(C)C2)Sc2ccccc21
→ 69	191	-64	28
Nc1oc(-c2ccc(Cl)cc2)cc1C(=O)c1ccc(Cl)cc1
→ 102	99	.	0
Cc1ccc(S(=O)(=O)N2CCN(C(C)CC(=O)O)CC2)cc1 (stereo not drawn)
→ 94	99	-31	9
C=CCNc1nc(C(=O)OCc2c(C)noc2C)cs1
→ 104	112	-21	-11
NNc1cccc(C(F)(F)F)c1
→ 104	105	.	-1
Nc1cc(C(=O)O)ccc1NCCCN1CCOCC1
→ 103	103	0	91
Cn1cc(/C=N/NC(=O)C(O)c2ccccc2)c2ccccc21 (stereo not drawn)
→ 100	103	2	21
O=C(CSc1ncc(CO)n1Cc1ccccc1)N1CCc2ccccc21
→ 103	103	-2	-15
O=C(CSc1nc2c(oc3ccccc32)c(=O)n1C1CCCC1)Nc1nccs1
→ 98	105	6	-4
O=C(NCCCN1CCCC1)c1ccccc1Cl
→ 101	99	-10	-11
CN(CC(=O)NN1C(=O)NC2(CCCCC2)C1=O)Cc1ccc(Cl)cc1
→ 102	99	-9	1
CCOC(=O)c1ccc(NC(=O)CON=c2c(C)nc3ccccc3nc2C)cc1
→ 98	92	-16	-5
CN(C)CCN(C)Cc1ccccc1
→ 101	102	-16	-25

Further compounds follow.
| structure | PV pol inh | PV pol inh intensity | Mtb MenB inh | MbtI inh |
| --- | --- | --- | --- | --- |
| COc1ccc(C(=O)NCCn2cc(SC(C)c3ccccc3)c3ccccc32)cc1 (stereo not drawn) | 102 | 109 | -29 | -11 |
| CC1CC(C)CN(C(=S)Nc2ccccc2)C1 (stereo not drawn) | 106 | 101 | -43 | -8 |
| CCOC(=O)c1oc2ccccc2c1CN1CCSC1=Nc1ccc(OC)cc1 | 97 | 99 | -16 | 17 |
| CCC(SC1=Nc2ccccc2C2=NC(c3ccccc3)C(=O)N12)C(=O)NCc1ccc(C)cc1 (stereo not drawn) | 103 | 105 | -23 | 11 |
| Cc1cccc(CC(=O)Nc2c(C(N)=O)oc3ccccc23)c1 | 103 | 104 | -18 | -57 |
| CCN(CC)C(=O)Cn1cnc2c(cnn2-c2cccc(Cl)c2)c1=O | 102 | 101 | 9 | -6 |
| CCC(c1nc2ccccc2c(=O)n1CCCn1ccnc1)N1C(=O)c2ccccc2C1=O (stereo not drawn) | 101 | 103 | -24 | -5 |
| Cc1ccc(NC(=O)N(C)CCOc2ccccc2)cc1 | 105 | 107 | -5 | -12 |
| CS(=O)(=O)c1ccc(NC(=O)Cc2n[nH]c(=O)c3ccccc23)cc1 | 104 | 99 | 7 | 13 |
| O=C(NCc1ccccc1)c1ccc(=O)[nH]n1 | 103 | 112 | -17 | -5 |
| Cc1nc(Cc2nnc(SCC(=O)Nc3ccc(S(=O)(=O)N4CCCC4)cc3)o2)cs1 | 105 | 113 | -32 | 0 |
| CCN(CC)CC(=O)N1N=C(c2ccc(OC)cc2)CC1c1cccc(OC)c1OC (stereo not drawn) | 100 | 100 | 5 | 28 |
| CC1(C)N=C(Nc2ccccc2)SC1=N | 104 | 106 | 8 | -1 |
| O=c1cc(NCCNc2cc(=O)oc3ccccc23)c2ccccc2o1 | 103 | 106 | 18 | 4 |
| CNC(=S)NNc1nc(N2CCCC2)nc(N2CCCC2)n1 | 106 | 102 | -26 | -4 |
| Cc1nc(NCCCn2ccnc2)c2ccccc2n1 | 102 | 106 | . | -16 |
| Oc1[nH]c2ccccc2c1C=NCCC1=CCCCC1 | 99 | 102 | -20 | -13 |
| CC1CCCCN1C(=O)COC(=O)c1ccccc1NCc1ccco1 (stereo not drawn) | 104 | 109 | -19 | 79 |
| CC(C)CNc1cnnc2c(Cl)cccc12 | 103 | 101 | -6 | 2 |
| CCN=C1S/C(=C\c2cn(CC(=O)NCc3ccco3)c3ccccc23)C(=O)N1CC | 101 | 103 | 5 | -3 |
| CC1NC(=S)N(c2ccc(C(C)C)cc2)C1=O (stereo not drawn) | 105 | 105 | -34 | 12 |
| CCN(CC)S(=O)(=O)c1ccc(S(=O)(=O)NCc2ccc3c(c2)OCO3)cc1 | 99 | 103 | -14 | -9 |
| Cc1nnc(SCC(=O)Nc2cc(-c3ccc(Cl)cc3)nn2C)n1C | 107 | 108 | 2 | -2 |
| NC(=S)NN=C1Cc2ccccc2C1 | 102 | 101 | -7 | 62 |
| COc1ccc(OC)c(NC(=O)CSc2ncnc3c2oc2ccccc23)c1 | 101 | 101 | 1 | -1 |
| O=C(CCn1c(=O)oc2ccccc21)n1c(=O)oc2ccccc21 | 102 | 101 | -54 | -2 |
| COc1ccc(CNC(=O)c2cccc(NC(C)=O)c2)cc1OC | 103 | 101 | -14 | -9 |
| CN1CCCC1=Nc1ccccc1C#N | 108 | 114 | -3 | . |
| CC1=Nc2ccccc2N=C(C)C1 | 99 | 109 | 14 | -9 |
| CC(C)CCNc1ncnc2c1sc1nc(-c3ccco3)c3c(c12)CCCC3 | 104 | 105 | -16 | 36 |
| NC(=S)N/N=C/c1cn[nH]c1-c1ccccc1 | 98 | 101 | -4 | 95 |
| C#CC(C)(C)NC(=O)c1cccnc1Oc1ccccc1 | 98 | 95 | -6 | -8 |
| Cc1ccc(OCCSc2nc3ccccc3n2CCC(=O)O)cc1 | 104&100 | 109&99 | 3 | 1 |
| Clc1nc2ccc(Br)cc2s1 | 104 | 105 | -28 | 27 |
| O=C1NCCN1C(=O)C(c1ccccc1)c1ccccc1 | 104 | 99 | -19 | . |
| CCCCNc1nc(-c2ccccc2)no1 | 104 | 105 | -9 | -10 |
| CC(C)(C)c1cc(/C=N/n2c(N)nc3ccccc32)cc(C(C)(C)C)c1O | 104 | 99 | . | -7 |
| Cc1nc2ccccc2nc1CSc1nnc2ccccn12 | 107 | 106 | -29 | -1 |
| O=c1[nH]cnc2scc(-c3ccsc3)c12 | 102 | 101 | 38 | 16 |
| O=C(/C=C/c1ccccc1)N1CCC(c2ccccc2)C1 (stereo not drawn) | 104 | 109 | -2 | -27 |
| CN(Cc1ccccc1)CC(O)COCC1=CCC2CC1C2(C)C (stereo not drawn) | 102 | 98 | -8 | 12 |
| O=C(CSc1nc2ccccc2c(=O)[nH]1)c1ccc(S(=O)(=O)N2CCCCC2)cc1 | 102 | 106 | -27 | 13 |
| CCOC(=O)c1csc2c1CCC/C2=N/OC(C)=O | 103 | 102 | -17 | -9 |
| Cc1nc2ccccc2n1CC(=O)OCC(=O)NC1CC1 | 99 | 89 | -29 | 18 |
| O=C(OCc1c(F)cccc1Cl)c1cnc2sccn2c1=O | 101 | 95 | -18 | 106 |
| O=C1C2CNC3(C(=O)Nc4ccccc43)C2C(=O)N1C1CCCCC1 (stereo not drawn) | 102 | 102 | -27 | -6 |
| O=C1Cc2cc(C(=O)CSc3nnc4c(n3)CCCC4)ccc2N1 | 100 | 99 | -97 | 9 |
| CC(C)CP(=O)(O)c1ccccc1 | 100 | 103 | 3 | -23 |
| CCO/C=C(\C#N)C(=O)Nc1ccc(F)c(Cl)c1 | 99 | 102 | -3 | 13 |
| CC(C)c1ccc(NC2=NCC(=O)N2Cc2ccccc2)cc1 | 103 | 99 | -16 | -10 |
| CCOC(=O)c1c(C)nsc1NN=C(C#N)C(=O)C(C)(C)C | 103 | 101 | -31 | 16 |
| CN(C)S(=O)(=O)c1cccc(CSc2cccc[n+]2[O-])c1 | 105 | 110 | -20 | 2 |
| O=S(=O)(c1ccccc1)C1(S(=O)(=O)c2ccccc2)CCCC1 | 102 | 104 | . | -9 |
| Nc1cc(N)cc(C(F)(F)C(F)(F)C(F)(F)F)c1 | 101 | 98 | -44 | 9 |
| COc1ccc(C2NC(C(=O)O)C3C(=O)N(c4ccc(F)cc4)C(=O)C23)c(OC)c1OC (stereo not drawn) | 102 | 103 | -32 | -7 |
| CCCSc1nc2ccccc2n1CN(C)Cc1ccc2c(c1)OCCO2 | 107 | 109 | -4 | 0 |
| CC(C)c1ccc(OCCN2CCNCC2)cc1 | 101 | 103 | -5 | -43 |
| COc1ccc(NC(c2ccc(C)cc2)n2ncc3c(=O)n(C)c4ccccc4c32)cc1 (stereo not drawn) | 107 | 114 | -23 | . |
| CN1CCN(C(=O)CCN2C(=O)/C(=C/c3ccccc3)SC2=S)CC1 | 98 | 101 | -89 | -1 |
| CC(C(=O)N1CCCCC1)N1Cc2ccccc2C1=O (stereo not drawn) | 101 | 103 | 6 | -7 |

Next structures follow:
| structure | PV pol inh | PV pol inh intensity | Mtb MenB inh | MbtI inh |
| --- | --- | --- | --- | --- |
| CN1CCCN(Cc2coc3ccccc3c2=O)CC1 | 100 | 104 | 17 | 5 |
| Cc1ccc(C)c(C(=O)Cn2cc(Br)ccc2=O)c1 | 104 | 101 | -10 | 7 |
| CN1c2ccccc2N(C)C1/C=C/c1ccccc1 | 102 | 105 | -57 | 1 |
| Cn1nc(-c2ccc(N3CCOCC3)c(NS(C)(=O)=O)c2)c2ccccc2c1=O | 102 | 103 | -17 | -4 |
| N#C/C(=C/c1ccc(-c2ccc(Cl)c(C(=O)O)c2)o1)C(=O)NC1CCCC1 | 102 | 111 | -397 | 12 |
| CSc1nc2ccc(NC(=O)CCC(=O)c3cccs3)cc2s1 | 107 | 107 | -32 | -11 |
| Cc1ccc(-c2nc(-c3ccc(C)cc3)[nH]c(=O)n2)cc1 | 101 | 103 | -30 | -1 |
| CC1CCN(CN2C(=O)N(CN3C(=O)N(CN4CCC(C)CC4)C(=O)C3(C)C)C(C)(C)C2=O)CC1 | 104 | 99 | -22 | -6 |
| Cc1ccc2nc(NC(=O)CCc3nc4cc(S(=O)(=O)N5CCCCC5)ccc4n3C)sc2c1 | 115 | 129 | -13 | -8 |
| CC(=O)N1CCC2(CC1)Oc1ccccc1C1CC(c3ccccc3)=NN12 (stereo not drawn) | 100 | 99 | -37 | -46 |
| Cc1ccc(/C=C/C(=O)Nc2cccc(NC(=O)/C=C/c3ccc(C)o3)n2)o1 | 100 | 106 | -36 | -29 |
| O=C1CC(/C=C/c2ccc(Cl)cc2)=Nc2ccccc2N1 | 99 | 100 | . | -2 |
| COc1cc(N)c(Cl)cc1C(=O)OCC(=O)c1ccc2c(c1)OCCO2 | 100 | 104 | -14 | 2 |
| COC(=O)C1(C(F)(F)F)N=C(C)OC(N2CCOCC2)=N1 (stereo not drawn) | 99 | 103 | -3 | -6 |
| COc1ccc2c(CC(=O)OCC(=O)Nc3ccccc3)coc2c1 | 105 | 107 | -13 | 17 |
